Source: PubChem BioAssay
Menin MLL FP FL = inhibitors of human menin-MLL interaction, wild-type MLL peptide | Fluorescence polarization, fluorescein-MLL peptide displacement from menin | FP activity change, % at 61.4 µM | 290,000 tested, under 10 active | AID 1766; inconclusive = falling polarisation curve, or a change in total fluorescence; inactive = total fluorescence flat and polarisation flat or rising; no compound was filed as active; the % refers to the polarisation; negative = inhibition;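 further: % of control where 0% means no effect; inhibitors lower the polarisation; unlabelled MLL peptide was the positive control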
Sfp inh = inhibitors of Bacillus subtilis Sfp phosphopantetheinyl transferase. Q9F4F7. 3.5% of 310,000 active. AID 1490. Biochemical Sfp PPTase activity, qHTS. Potency, µM, inactives show max response, negative = inhibition, usual class: inhibitors; active means well fitted inhibition curve with a large enough effect; inconclusive means small, poorly fitted or top-dose-only effect, or another doubt; inactive means no such curve, though single readings can be large or run the other way;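 further: the enzyme is Sfp with the accession as filed and its product quenches rhodamine fluorescence; potency means the concentration at half of the fitted maximal effect; 0% = enzyme reaction without inhibitor and -100% = no enzyme wells; top concentration of the series not given in the record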
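Fluorescence-quenching assay: 15 nM Sfp-PPTase preincubated 15 min at room temperature with compound, then 5 uM rhodamine-CoA and 12.5 uM BHQ-2-labelled YbbR peptide added. Fluorescence (ex 525/em 598 nm) read at start and after 30 min; difference gives rate.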
ClpP mod = qHTS Assay for Activators of ClpP | 1.9% of 340,000 active | AID 651965, 2013 | purified B. subtilis ClpP, FRET peptide cleavage, 20 min | Potency, µM (titrated, usually from 57.5 µM), for the others: at the highest dose activity change, negative = active; active = well fitted falling curve with a large enough effect; inconclusive = small, poorly fitted or top-dose-only effect; inactive = no such curve, though single readings can be large or run the other way; further: potency means the concentration at half of the fitted maximal effect; the source files actives as falling curves though it sought activators and does not explain the sign; nearly all actives have a fitted effect of over 65% in size; many hits overshoot -100%
Target sequence (P80244 whole entry, looked up): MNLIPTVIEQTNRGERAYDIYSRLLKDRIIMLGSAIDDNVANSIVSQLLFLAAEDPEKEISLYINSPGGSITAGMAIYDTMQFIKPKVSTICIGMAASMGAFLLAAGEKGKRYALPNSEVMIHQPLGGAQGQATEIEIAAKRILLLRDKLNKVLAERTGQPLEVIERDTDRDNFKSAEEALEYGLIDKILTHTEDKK
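FRET quenching reversal measured ClpP activation: 10 microg/mL B. subtilis ClpP at pH 8 with the FRET-FV decapeptide, read at 430 nm after 320 nm excitation. The 20-min minus 0-min signal was scaled between DMSO/no-enzyme wells and ADEP (5.8 microM final).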
PINK1 modulator = changes PINK1 expression; Potency, µM (titrated, usually from 76.6 µM), for the others: top-dose activation (PINK1 increase), usual class: activators; 0.2% of 410,000 active; PINK1 immunofluorescence, high-content cytometry, 24 h; AID 624263; active = well fitted activation curve with a large enough effect; inconclusive = small, poorly fitted or top-dose-only effect; inactive = flat fitted curve, though single readings scatter; cell line not stated here;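 further: potency means the concentration at half of the fitted maximal effect; % of control where 0% means no effect; nearly all actives have a fitted effect of over 65% in size; a mitochondrial uncoupler was the plate control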
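PINK1 protein level read as immunofluorescence by microplate cytometer in a fixed, stained stable cell line after 24 h exposure to five compound concentrations, with CCCP as control.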
TRPV1 potentiator = enhances activation of the human vanilloid receptor TRPV1; potentiation, % at 8.33 µM; TRPV1-expressing cells, Fluo-8 calcium influx, capsaicin EC20 potentiation; host cell line not named in the record; control for the full effect not named in the record; 0.02% of 320,000 active; active means potentiation above 80%; inconclusive means 30% to 80%; inactive means below 30%; further: 0% is about no effect
Target sequence (Q8NER1 whole entry, looked up): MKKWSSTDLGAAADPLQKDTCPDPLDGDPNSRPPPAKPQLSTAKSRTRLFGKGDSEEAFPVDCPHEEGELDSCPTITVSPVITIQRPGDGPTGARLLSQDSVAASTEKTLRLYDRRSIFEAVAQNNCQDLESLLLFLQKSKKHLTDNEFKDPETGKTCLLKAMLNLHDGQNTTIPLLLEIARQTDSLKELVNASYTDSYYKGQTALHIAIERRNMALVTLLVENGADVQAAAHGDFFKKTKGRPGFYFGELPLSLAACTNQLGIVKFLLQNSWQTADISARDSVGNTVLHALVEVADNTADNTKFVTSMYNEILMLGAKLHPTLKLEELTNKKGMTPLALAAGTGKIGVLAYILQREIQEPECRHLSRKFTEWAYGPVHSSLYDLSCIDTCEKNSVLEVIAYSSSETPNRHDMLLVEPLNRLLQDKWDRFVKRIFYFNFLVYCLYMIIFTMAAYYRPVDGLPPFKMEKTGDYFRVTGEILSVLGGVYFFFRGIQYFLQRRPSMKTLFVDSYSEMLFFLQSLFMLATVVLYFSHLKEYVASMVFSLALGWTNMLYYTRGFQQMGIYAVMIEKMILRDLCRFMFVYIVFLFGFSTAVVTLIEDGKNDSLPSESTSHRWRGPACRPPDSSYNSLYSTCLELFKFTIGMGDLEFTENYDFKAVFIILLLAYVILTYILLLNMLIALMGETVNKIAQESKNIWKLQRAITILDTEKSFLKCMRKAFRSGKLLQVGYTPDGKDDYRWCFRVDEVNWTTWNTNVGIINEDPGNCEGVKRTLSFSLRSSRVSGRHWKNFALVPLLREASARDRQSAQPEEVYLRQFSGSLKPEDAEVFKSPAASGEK
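Cells expressing TRPV1 were dye-loaded with Fluo-8 and read kinetically: 10 s baseline, 3 min after compound (agonist portion), then 2 min after EC20 capsaicin (allosteric enhancer portion). Calcium-bound dye fluorescence at 480/520 nm.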
TRPML1 ag = activates the human TRPML1 channel | Q9GZU1 | TRPML1-expressing cells, Ca2+ dye fluorescence, FDSS; host cell line not named in the record; reference of the full effect not given here | activation, % (test concentration not listed) | 0.12% of 410,000 active | AID 624414; in the data active = activation above about 50%; inconclusive = about 30% to 50%; inactive = below about 30%; further: 0% is about no effect; the text of the record puts the active cut at 80%
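Agonist activity was taken from a 110 s kinetic Ca2+ dye read on the FDSS after pinning compounds onto TRPML1-DL cells. The cells were seeded at 1,500/well with Tet inducer, incubated about 16 h, then dye-loaded at room temperature.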
TRPML1 blocker = inhibitors of human TRPML1 channel | Q9GZU1 | TRPML1-inducible cells, Ca2+ dye fluorescence, FDSS; active compounds read low; inhibition of EC80 agonist-evoked calcium signal | activity change, negative = inhibition, % (no concentration beside the values) | 0.02% of 390,000 active | AID 624415; in the data active means activity change below about -50%; inconclusive means about -30% to -50%; inactive means above about -30%;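 further: stimulus is agonist 54-4 at its EC80 concentration; on the % scale 0 is the no-effect control and ±100 the full control effect; compound concentration not given in the record; the text of the record puts the active cut at -80%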
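Tet-induced TRPML1-DL cells loaded with Ca8 no-wash calcium dye were read kinetically on FDSS. Compound addition was followed by EC80 agonist 54-4 (4 uM final); inhibition was read over 110 s.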
* marks the source's active call; other numbers are inactive results; ? = inconclusive; . = no result given; & = joins results of further samples; [ ] = another dose, or the depositor's remark.

Results follow in this order: Menin MLL FP FL	Sfp inh	ClpP mod	PINK1 modulator	TRPV1 potentiator	TRPML1 ag	TRPML1 blocker
(1) Cc1cnc(C(=O)NC2CC(C)(C)Cc3c2cnn3-c2cccc(F)c2)cn1 (stereo not given)
 : .	8.8%	-1.6%	3.2%	-26.4	-0.4	-4.1
(2) C/C(=N\NC(=O)CNC(=O)c1cccs1)c1ccc(Cl)c(Cl)c1
 : -0.7	13.0%	0.6%	2.1%	?	-0.1	47.6
(3) O=C(Nc1cccc(-c2nc3cc(Cl)ccc3o2)c1)c1cc([N+](=O)[O-])ccc1N1CCOCC1
 : .	.	0.3%	9.5%	.	0.0	2.5
(4) COc1ccc(-n2c(C)csc2=S)cc1
 : 5.2	24.2%	0.8%	-0.9%	0.4	0.0	-4.4
(5) CC(=O)Nc1ccc(NC(=O)C(Cc2ccccc2)NS(=O)(=O)c2ccc3c(c2)oc(=O)n3C)cc1 (stereo not given)
 : .	.	1.0%	2.9%	.	-0.2	21.5
(6) COC(=O)c1ccccc1S(=O)(=O)N1CCC(C(=O)NCc2ccco2)CC1
 : .	.	-2.6%	0.1%	-0.4	1.0	-3.9
(7) CS(=O)(=O)N1c2ccccc2[C@]2([C@@]34C[C@H]5C(=O)N[C@@H](Cc6ccccc6)C(=O)N5[C@@H]3N(S(C)(=O)=O)c3ccccc34)C[C@H]3C(=O)N[C@@H](Cc4ccccc4)C(=O)N3[C@H]12
 : .	.	-1.3%	0.1%	.	0.2	-10.3
(8) Cc1ccc2nc(NC(=O)CSc3nc(=O)n(CCCN(C)C)c4c3CCC4)sc2c1
 : .	.	-0.4%	-1.0%	-11.4	0.9	9.5
(9) O=C(Nc1ccc(Cl)c(-c2nc3cc(Cl)ccc3o2)c1)c1cc([N+](=O)[O-])ccc1N1CCOCC1
 : .	.	-2.3%	2.5%	.	0.3	-5.9
(10) CCOc1ccccc1NC(=O)CSc1ccccc1
 : -1.8	1.3%	0.7%	2.7%	10.9	1.2	7.1
(11) Cc1nn(CC(=O)NCc2ccc(OC(C)C)cc2)c(=O)c2cc(-c3ccccc3)nn12
 : -0.5	16.4%	0.0%	9.4%	4.9	-1.0	-7.2
(12) CNc1ccc(Cl)nn1
 : 3.6	14.3%	-18.4%	1.6%	8.9	0.0	-17.1
(13) CN1CCN(CC(=O)Nc2cc(N(C)C)nc3ccccc23)CC1
 : 3.7	-13.4%	-1.4%	0.3%	-0.3	-0.5	4.0
(14) Cc1cc(C)c2c(CC(=O)Nc3ccccc3C(F)(F)F)coc2c1
 : .	.	1.1%	-0.5%	.	0.7	1.0
(15) Cc1cc2c(cc1S(=O)(=O)CCC(=O)N(C)C1CCCCC1)OCC(=O)N2
 : -3.7	5.5%	-0.2%&1.3%	0.6%&-0.3%	-12.1	-0.2&3.8	7.2&-1.8
(16) O=C(Nc1ccc(CSc2ccccc2)cc1)c1ccco1
 : .	17.8%	-3.7%	8.6%	-3.3	1.8	3.7
(17) O=C(O)c1cccnc1SCc1cccc(Br)c1
 : -2.5	2.2%	-0.7%	1.1%	?	.	.
(18) CCn1c(O)c(N=NC(=O)c2ccc(CSc3nncn3C)cc2)c2ccccc21
 : 3.3	1.0%	-1.3%	3.3%	0.8	1.1	8.9
(19) O=C(CN1CCN(S(=O)(=O)c2ccc3ccccc3c2)CC1)N1CCc2ccccc2C1
 : -0.9	-0.5%	0.1%	-1.9%	13.9	3.6	-2.2
(20) CCOc1nc(CC)nc(NC(=O)NS(=O)(=O)c2ccccc2Cl)n1
 : 4.6	-4.2%	2.1%	1.5%	-3.1	0.0	1.4
(21) O=C(Nc1ccc(-c2nc3cccnc3s2)cc1)c1ccc(Br)o1
 : 4.3	-0.7%	4.1%	5.8%	-11.7	-0.6	-8.4
(22) O=C(CC(c1ccccc1)C1CCCCC1=O)c1ccccc1 (stereo not given)
 : .	.	0.3%	3.2%	.	0.0	23.0
(23) Cc1noc(C)c1COC(=O)CCCOc1ccc(Cl)cc1Cl
 : 4.9	-6.7%	0.5%	-1.1%	-22.7	-1.4	9.6
(24) OCC1(CO)COC(CCc2ccccc2)=N1
 : 1.9	15.8%	-5.3%	0.1%	11.9	.	.
(25) CCOC(=O)CSc1nc2ccccc2c(=O)n1-c1cccc(C)c1
 : .	.	-4.1%	0.7%	.	2.5	27.0
(26) O=C(/C(=C/O)N=Nc1ccccc1)c1ccco1
 : -2.0	-3.5%	.	0.5%	19.3	-0.3	16.5
(27) O=C(NCCN1CCOCC1)/C(=C/c1ccc(F)cc1)NC(=O)c1ccccc1
 : .	-2.8%	-3.5%	3.3%	1.2	-1.2	-8.0
(28) O=C(Cc1ccc(F)cc1)NC(Cc1c[nH]c2ccccc12)C(=O)O (stereo not given)
 : -14.1	15.3%	.	-0.2%	-5.9	-0.7	0.8
(29) O=C(NC(=S)Nc1ncccn1)c1ccc(F)cc1
 : 1.4	15.8µM*	.	-1.4%	0.6	-0.2	42.4
(30) COc1cccc(-n2ccnc2SCC(=O)Nc2cc(OC)ccc2OC)c1
 : 3.5	-4.2%	-2.8%	0.4%	-6.4	1.7	-5.0

Reformatted in transposed form: entries from further up.
(13) CN1CCN(CC(=O)Nc2cc(N(C)C)nc3ccccc23)CC1
(15) Cc1cc2c(cc1S(=O)(=O)CCC(=O)N(C)C1CCCCC1)OCC(=O)N2
(20) CCOc1nc(CC)nc(NC(=O)NS(=O)(=O)c2ccccc2Cl)n1
(25) CCOC(=O)CSc1nc2ccccc2c(=O)n1-c1cccc(C)c1
(29) O=C(NC(=S)Nc1ncccn1)c1ccc(F)cc1
(3) O=C(Nc1cccc(-c2nc3cc(Cl)ccc3o2)c1)c1cc([N+](=O)[O-])ccc1N1CCOCC1

assay / entry | 13 | 15 | 20 | 25 | 29 | 3
Menin MLL FP FL | 3.7 | -3.7 | 4.6 | . | 1.4 | .
Sfp inh | -13.4% | 5.5% | -4.2% | . | 15.8µM* | .
ClpP mod | -1.4% | -0.2%&1.3% | 2.1% | -4.1% | . | 0.3%
PINK1 modulator | 0.3% | 0.6%&-0.3% | 1.5% | 0.7% | -1.4% | 9.5%
TRPV1 potentiator | -0.3 | -12.1 | -3.1 | . | 0.6 | .
TRPML1 ag | -0.5 | -0.2&3.8 | 0.0 | 2.5 | -0.2 | 0.0
TRPML1 blocker | 4.0 | 7.2&-1.8 | 1.4 | 27.0 | 42.4 | 2.5

(list continues)
Results follow in this order: Menin MLL FP FL	Sfp inh	ClpP mod	PINK1 modulator	TRPV1 potentiator	TRPML1 ag	TRPML1 blocker
(31) Cc1ccc(S(=O)(=O)NCC(=O)OC(C)C(=O)NCc2ccc3c(c2)OCO3)cc1 (stereo not given)
 : .	.	-2.3%	4.7%	.	1.1	9.5
(32) O=C(Nc1cccc(C(F)(F)F)c1)c1ccc(Cn2cc(Br)cn2)o1
 : 2.1	18.7%	0.5%	0.0%	-13.9	10.9	-0.8
(33) Cc1ccc2cc(CCNC(=O)c3ccc(Br)o3)c(=O)[nH]c2c1
 : 4.8	2.1%	-15.0%	0.5%	10.7	0.4	-1.1
(34) CCOCCn1c(CN2CCc3ccccc3C2)nc2c1c(=O)n(C)c(=O)n2C
 : -0.2	18.7%	.	-2.2%	2.6	0.9	-5.9
(35) O=C(c1cnn2c1NC(=C1CC1)C=C2C(F)F)N1CCc2ccccc21
 : .	.	1.4%	12.3%	.	-1.0	.
(36) COc1ccc(-c2csc(N3C(=O)C4C5c6ccccc6C(c6ccccc65)[C@@H]4C3=O)n2)cc1 (stereo not given in full)
 : 2.3	7.5%	0.5%	0.6%	14.2	0.8	-11.6
(37) CCCn1cnnc1CNC(=O)[C@H]1O[C@@H](n2ccc(=O)[nH]c2=O)[C@H](O)[C@@H]1O
 : .	.	1.1%	0.2%	.	0.2	.
(38) CCN1CCN(C(=O)c2cc(COc3ccc4ncccc4c3)on2)CC1
 : -0.7	11.6%	.	0.9%	2.2	-0.6	19.1
(39) c1ccc(-c2nc(-c3nccc4ccccc34)oc2-c2ccccc2)cc1
 : -0.3	-18.3%	4.1%	7.8%	0.7	-0.4	26.9
(40) O=C(NCc1cccnc1)C1CC(c2ccc(Cl)c(Cl)c2)=NO1 (stereo not given)
 : -0.9	5.0%	-3.7%	9.5%	-7.3	.	.
(41) CN(C(=O)c1ccncc1)C1CCCN(Cc2ccccc2F)C1 (stereo not given)
 : -8.5	16.7%	.	0.1%	-23.2	-0.2	-0.3
(42) COc1cc(NC(=O)CSc2nnc(C)s2)cc(OC)c1OC
 : -2.2	12.7%	-3.3%	-0.9%	5.3	-0.1	2.4
(43) O=C(NCc1n[nH]c(=S)n1Cc1ccccc1)c1ccc(Cl)cc1Cl
 : 0.6	4.3%	1.6%	0.1%	-5.9	0.7	22.3
(44) COc1ccc(S(=O)(=O)N(C)C)cc1NC(=O)CSC(C)C(=O)Nc1cc(C)on1 (stereo not given)
 : .	.	2.1%	-0.8%	2.7	-0.2	-3.2
(45) CCN1C(=O)CC(N2CCN(CC(=O)NC(C)C)CC2)C1=O (stereo not given)
 : 3.6	8.2%	1.7%	-3.3%[38.3 µM]	3.6	0.2	-15.3
(46) COc1cc(Nc2ncnc(N)n2)cc(OC)c1
 : 1.0	?	.	-0.7%	0.1	-0.1	-1.0
(47) CC1CC(C)(C)NC(=S)N1CCC(=O)NCc1ccc(Cl)cc1 (stereo not given)
 : 2.7	14.5%	.	1.4%	9.8	-0.7	-20.5
(48) Cc1cccn2c(=O)c3cc(C(=O)NCC4CCCO4)c(=N)n(Cc4cccnc4)c3nc12 (stereo not given)
 : -0.2	17.1%	0.2%	0.9%	-5.7	0.4	-6.0
(49) CCOc1ccc(C(O)(c2ccccc2OC)C(CN2CCCC2)c2ccccc2)cc1 (stereo not given)
 : -1.6	0.5%	0.9%	4.4%	4.2	0.4	5.6
(50) O=S(=O)(Nc1ccc2c(c1)OCO2)c1ccc(Br)s1
 : 3.6	9.4%	-1.4%	3.1%[38.3 µM]	-6.3	0.5	-14.1
(51) CSc1sc(C#N)c2c1/C(=N\O)CCC2
 : 0.3	2.6%	.	-0.4%	3.3	1.6	-2.3
